Source: PubChem BioAssay
MT1-MMP act inh = blockers of MT1-MMP proenzyme processing, primary screen, HT1080 RFP-PRO-GFP cells, GFP/RFP fluorescence | GFP/RFP ratio change, % at 20 µM | 360,000 tested, 0.061% active | AID 651647, 2012 | Matrix metalloproteinase-14 (Homo sapiens), P50281 | GFP/RFP ratio fluorescence, overnight; percent of plate control window, DMSO zero;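 active means GFP/RFP ratio change of at least 30% with cell ATP level not reduced by more than half and red fluorescence within 50% of control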; further: strong numbers were not always called active
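Assay system: HT1080 RFP-PRO-GFP cells | Dosing: 20 µM single dose, 1% DMSO | Incubation: Cells overnight before dosing, compound overnight, 37 °C, 5% CO2 | Evaluation: GFP/RFP fluorescence ratio | Control set: DMSO-only wells and HT1080 RFP-L50D-GFP cell wells as references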
Yeast UUG start = modulators of yeast start codon fidelity, primary screen, whole organism, S. cerevisiae, single point, plate reader; S. cerevisiae UUG-firefly luciferase reporter, luminescence/redox ratio; AID 602363, 2012; activity score, % at 18.7 µM; 350,000 tested, 0.13% active;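 active means replicate mean at a twofold rise or more, about +100% in these data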;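 further: firefly luciferase made from a UUG start codon reports start codon fidelity; reporter light over untreated wells divided by growth signal over untreated wells; some hits fall short of that in this replicate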
eIF4H inh = human eIF4H binding inhibitors, primary screen, translation initiation inhibitor project, biochemical, uHTS, fluorescence polarization | eIF4H fluorescence polarization binding assay | AID 2012, 2009 | 290,000 tested, 0.94% active | inhibition, % at 35 µM | Eukaryotic translation initiation factor 4H (Homo sapiens), Q15056;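 active means 50% or more with normal probe brightness, or confirmed in later tests; inconclusive means above 50% with abnormal brightness, or retests that disagree; inactive means below 50% or failed in later tests; about a fifth of its hits are not listed in these tables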;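 further: calls also rest on retests at 20 µM and on dose response follow-up; 0% = protein and probe with vehicle and 100% = probe without protein; strong numbers were not always called active; many hits fall short of the cut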
PABP FP inh = PABP poly(A) RNA binding inhibitors, primary screen, biochemical, fluorescence polarization, uHTS; Polyadenylate-binding protein 1 (Homo sapiens), P11940; inhibition, % at 35 µM; 290,000 tested, 1% active; AID 2014, 2009;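 active means 50% or more with normal probe brightness, or confirmed in later tests; inconclusive means above 50% with abnormal brightness, or retests that disagree; inactive means below 50% or failed in later tests; about a fifth of its hits are not listed in these tables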;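 further: calls also rest on retests at 20 µM and on dose response follow-up; controls were probe without protein and protein plus probe with vehicle; some compounds called inactive have numbers as strong as hits; many hits fall short of the cut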
Target sequence (P11940 whole entry, looked up): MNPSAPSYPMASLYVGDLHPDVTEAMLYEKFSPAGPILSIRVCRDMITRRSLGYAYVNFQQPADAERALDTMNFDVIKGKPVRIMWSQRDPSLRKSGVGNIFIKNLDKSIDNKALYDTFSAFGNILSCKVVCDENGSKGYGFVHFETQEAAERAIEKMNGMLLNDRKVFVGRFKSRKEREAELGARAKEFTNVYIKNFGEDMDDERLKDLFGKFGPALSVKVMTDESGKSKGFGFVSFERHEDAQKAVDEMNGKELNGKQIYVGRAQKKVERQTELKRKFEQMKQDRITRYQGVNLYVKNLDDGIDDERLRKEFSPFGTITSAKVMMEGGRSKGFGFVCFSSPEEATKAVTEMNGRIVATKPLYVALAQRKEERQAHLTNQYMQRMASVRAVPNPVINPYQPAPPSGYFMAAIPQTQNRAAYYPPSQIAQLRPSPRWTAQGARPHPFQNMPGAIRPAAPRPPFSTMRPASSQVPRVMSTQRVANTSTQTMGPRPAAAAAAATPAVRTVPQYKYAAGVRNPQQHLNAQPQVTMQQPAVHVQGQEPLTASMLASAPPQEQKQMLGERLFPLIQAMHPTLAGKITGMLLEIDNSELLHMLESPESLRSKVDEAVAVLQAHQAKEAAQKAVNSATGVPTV
Rce1 inhib = yeast Rce1p protease inhibitors, primary screen, biochemical, fluorescence, cell-free homogeneous | calls only | CAAX prenyl protease 2 (Saccharomyces cerevisiae (strain ATCC 204508 / S288c)), Q03530 | yeast membranes, quenched prenylated peptide cleavage fluorescence | 290,000 tested, 0.27% active;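 active means fall in fluorescence gain of 50% or more versus controls, with final raw signal at or below 3038400; inconclusive means same 50% fall but final raw signal above 3038400; inactive means fall in fluorescence gain under 50%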;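 further: plate controls were neutral control wells for no effect and wells lacking membranes for full effect; tested at 10 µM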
Target sequence (Q03530 whole entry, looked up): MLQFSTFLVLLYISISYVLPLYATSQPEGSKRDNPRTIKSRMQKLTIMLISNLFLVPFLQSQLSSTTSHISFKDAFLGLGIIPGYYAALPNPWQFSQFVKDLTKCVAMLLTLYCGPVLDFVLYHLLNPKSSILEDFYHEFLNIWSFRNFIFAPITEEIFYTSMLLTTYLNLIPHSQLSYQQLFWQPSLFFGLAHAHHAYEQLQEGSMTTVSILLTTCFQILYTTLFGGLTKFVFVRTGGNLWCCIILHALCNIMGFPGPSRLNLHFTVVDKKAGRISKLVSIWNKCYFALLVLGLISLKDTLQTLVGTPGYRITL
Env fusion inh = inhibitors of HIV-1 Env-driven cell-cell fusion, primary screen, HeLa-JRFL effector, CEM21 target cells, luciferase; inhibition, % at 12.3 µM; 360,000 tested, 1.1% active;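 active means mean replicate inhibition score of at least 50 and every replicate individually at or above 50; inconclusive means only one of the two criteria met; inactive means mean below 50 and not all replicates reaching 50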;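 further: 0% = plate neutral controls and 100% = maraviroc near 300 nM; one replicate is shown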
CSC inhib = cancer stem cell viability inhibitors, primary screen, luminescence; cancer stem cell-like cells viability; inhibition, % at 7.5 µM; 300,000 tested, 1.1% active;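 active means mean at 75% or more and at least half the replicates too; inconclusive means mean and replicates disagree; tested in HMLE shEcad cells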;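 further: 0% = median of negative and 100% = median of positive control wells; the first replicate is given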
eIF4H inh retest = further read-out of eIF4H inh, marked with its call; inhibition, %; compound at 20 µM; confirmation average;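 mean of two retest wells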
PABP FP inh retest = second read-out of PABP FP inh, no call of its own (marks repeat the call); inhibition, %; compound at 20 µM; confirmation repeats;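 mean of two retest wells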
MT1-MMP act inh RFP = recorded beside MT1-MMP act inh, whose call it bears; RFP signal change, %; measured here: RFP expression control read;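 0 = vehicle wells; hits needed this value within 50% of zero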
* = called active by the depositor; i = inactive; ? = inconclusive; · = no result given; + = active, no number; & = joins results of further samples. A portion of the library (hit frequency here may not be typical).

SMILES	MT1-MMP act inh	MT1-MMP act inh RFP	Yeast UUG start	eIF4H inh	PABP FP inh	Rce1 inhib	Env fusion inh	CSC inhib	others
Cc1cccc(NS(=O)(=O)c2cccc(C(=O)N3CCCC(C(F)(F)F)C3)c2)c1 (centres undefined)	-1	-4	1	·	·	i	i	1
O=C(Nc1ccccc1)c1ccc(S(=O)(=O)N2CCOCC2)cc1	-3	-2	7	-9	1	i	-14	-12
CC1(C)CNC(=O)CC(C)(C)N1O	-1	4	16	-2	-8	i	-29	-2
O=C(Nc1cnn(Cc2ccccc2)c1)c1cc2nc(-c3ccco3)cc(C(F)(F)F)n2n1	-2	-1	-13	-3	7	i	·	16
Cc1nc2cc3sc(C)nc3cc2s1	8	9	-13	-4	-19	i	-22	-7
CN1CCN(Cc2nc3ccccc3c(=O)n2Cc2nc(-c3ccc4ccccc4c3)cs2)CC1	-8&0	-14&1	·	-4	20	i	11&25	99*
COc1ccccc1NC(=O)c1cc2c(=O)n(C)c3ccccc3c2n1C	4	-1	-17	-6	0	i	-3	16
COc1ccc(C2/C(=C(\O)c3ccc4c(c3)OCCO4)C(=O)C(=O)N2c2nc(C)c(C(C)=O)s2)cc1 (centres undefined)	-3	2	-24	0	9	i	-8	-3
Cc1ccsc1/C=N/NC(=O)c1ccc2c(c1)OCCO2	2	-2	-54	-8	2	i	-32	6
CC1(C)C(C=C(Cl)Cl)C1C(=O)N(Cc1ccccc1Cl)C1CCS(=O)(=O)C1 (centres undefined)	-20	-11	22	-2	-2	i	33	-2
COc1cc(NC(=O)Nc2nc(C(N)C(C)C)cs2)cc(OC)c1OC (centres undefined)	1	6	-4	·	·	·	-84	·
O=C(Cn1nnc2ccccc21)OCC(=O)c1ccccc1	1	1	-19	-1	17	i	·	-13
O=C(O)COc1ccccc1C=NNC(=O)c1ccccc1NS(=O)(=O)c1cccs1	-6	1	-2	·	·	·	-2	-20
Cc1cc(SCCOc2ccc(Br)cc2)nc(N)n1	0	-8	-13	-4	4	i	-80	42
Nc1cc2c(cc1Cl)-c1ccc(Cl)cc1C2=O	4	4	-15	·	·	·	-37	·
CC(NC(=O)c1ccc(Cl)cc1Cl)C(c1ccccc1)N1CCOCC1 (centres undefined)	-3	-4	·	0	19	i	0	-4
Cc1ccc(-c2cc(C(=O)NCCCN3CCOCC3)c3ccc(Cl)c(C)c3n2)cc1	-3	-1	-18	-24	1	i	14	26
O=Cc1ccc(OC(=O)Cc2ccc(F)cc2)cc1	·	·	·	-5	-8	i	·	3
CCc1nc2ccc(C(=O)N3CCN(C(=O)c4ccco4)CC3)cn2c1N(C)Cc1cccs1	1	5	-6	·	·	·	10	·
Cc1nc2ccccc2n1CC(O)c1ccccc1 (centres undefined)	-2	-1	·	-3	-1	i	-15	-5
COc1ccc(C(CCNCc2ccc(OC(C)C)cc2)c2ccccc2OC)cc1 (centres undefined)	-6	-13	1	-1	-3	i	3	101*
CCN(CC)S(=O)(=O)c1cccc(C(=O)N2CC(O)CC2C(=O)OC)c1 (centres undefined)	1	2	-6	1	-8	i	·	-8
O=C(CSc1nnc(-c2cccs2)n1-c1ccccc1)NCc1ccc2c(c1)OCO2	1	0	-15	-4	-20	i	-7	3
Cc1ccc(CNC(=O)C(Cc2ccccc2)n2cccc2)cc1 (centres undefined)	0	-3	7	-8	23	i	-36	-3
Nc1nc(-c2ccccc2)[nH]c(=O)c1N	3	6	-18	18	-7	i	-1	-9

Additional records
SMILES	MT1-MMP act inh	MT1-MMP act inh RFP	Yeast UUG start	eIF4H inh	PABP FP inh	Rce1 inhib	Env fusion inh	CSC inhib	others
COc1ccc(C(=O)NCCN=C2NS(=O)(=O)c3ccccc32)cc1	-1	-1	9	-8	-9	i	-3	·
CCOc1ccc(Cl)cc1S(=O)(=O)N1CCN(c2ccc(F)cc2)CC1	1	1	-12	-9	-2	i	-39	0
Cc1ccc(F)cc1C(=O)N1CCCCC1c1cc(C(=O)Nc2ccccc2)no1 (centres undefined)	-3	-3	-3	·	·	·	-7	·
Cc1ccc(S(=O)(=O)c2nc(-c3ccccc3)oc2SCC(=O)NCC2CCCO2)cc1 (centres undefined)	-1	-6	-9	-4	5	i	9	-8
Oc1cc(OCc2ccccc2)ccc1-c1[nH]ncc1-c1ccccc1	-1	-8	-21	-4	-9	i	12	47
CCOC(=O)C1=C(CSc2nc(CC)c(C)cc2C#N)OC(N)=C(C#N)C1c1ccc(OC)cc1 (centres undefined)	-198	4	-9	86	-6	i	24	-1	eIF4H inh retest=-9;PABP FP inh retest=10
COc1cc(Nc2nc3ccc(Cl)cc3n3cnnc23)cc(OC)c1OC	8	9	-17	-11	15	i	8	-15
COC(=O)NNC(=O)C(C)Oc1ccc(Cl)cc1Cl (centres undefined)	-5	5	·	7	0	i	·	-9
CCN(CC)S(=O)(=O)c1ccc2nc(CSc3nnnn3-c3ccc(O)cc3)[nH]c2c1	3	-2	-23	-13	-13	i	33	9
Cc1ccc2c(c1)CCCN2C(=O)c1ccncc1	0	2	-19	1	1	i	·	-9
Fc1ccc(CN2CCN(c3ncccn3)CC2)cc1	0	3	-5	-3	8	i	24	-12
COc1ccc(NC(=O)CCn2c(=O)c3cccn3c3ccccc32)cc1	-1	5	-24	-17	-8	i	4	-6
Cc1noc(C)c1C(=O)Nc1ccccc1-c1ccccc1	0	3	-9	-3	10	i	-22	-1
CC(C)CC(=O)Nc1cc2nn(-c3ccccc3)nc2cc1Cl	9	10	-26	-11	-7	i	-197	-5
Cc1ccc(NC(=O)c2ccc(S(=O)(=O)N3CCOCC3)cc2)cc1	4	1	-16	2	0	i	-1	-4
O=C(CCN1CCN(C/C=C/c2ccccc2)CC1)Nc1ccccc1F	0	-1	·	-10	-2	i	22	3
Cc1ccc(S(=O)(=O)CCN2C=CC(C(F)(F)F)=NCC2)cc1	0	0	-12	6	-7	i	-7	-3
CC1CCCN(c2nc3c(c(=O)[nH]c(=O)n3C)n2CCCc2ccccc2)C1 (centres undefined)	-3	-4	-2	3	5	i	-60	6
COc1cccc(/C=N\NC(=O)c2ccc(Cn3cc(Br)c([N+](=O)[O-])n3)o2)c1O	-4	-10	·	14	-4	i	9	-8
CCOC(=O)c1ccc(COC(=O)CNS(=O)(=O)c2ccccc2)cc1	4	1	·	-5	2	i	5	-3
CCn1c(SCc2cccc(OC)c2)nc2ccccc2c1=O	-4	-8	-3	0	-4	i	12	40
COCCN1C(=S)N[C@@H](c2cccc(F)c2)C(C(=O)OC)=C1C	·	·	·	-1	38	i	·	27
Nc1nc2n(n1)C(c1ccccc1)CC(c1ccc(F)cc1)N2 (centres undefined)	6	7	-8	-9	-2	i	-12	·
CC(Oc1cc2oc(=O)c3c(c2cc1Cl)CCCC3)C(=O)NCCN1CCOCC1 (centres undefined)	-1	3	-4	2	4	i	1	6
COc1ccc(-c2nnc(SCC(=O)Nc3cc(C)on3)n2N)cc1OC	-3	-3	-20	-2	3	i	-85	8

Other results
SMILES	MT1-MMP act inh	MT1-MMP act inh RFP	Yeast UUG start	eIF4H inh	PABP FP inh	Rce1 inhib	Env fusion inh	CSC inhib	others
Cc1cccc(NS(=O)(=O)c2ccc(C)c(C(=O)OCC(=O)Nc3cc(C)on3)c2)c1	5	-3	7	-8	-9	+	?	10
O=C(O)c1cc(N=Nc2c(O)ccc3ccccc23)cc(C(=O)O)c1	33*	10.0*	·	-7	1	·	1	·
COCCCN=Cc1c(C)[nH]n(-c2ccc(Br)cc2Br)c1=O	2	3	·	-4	-2	i	-10	-2
COc1cccc(CNC(=O)CCC(=O)N2Cc3cccc(OC)c3Oc3ncccc32)c1OC	-6	-1	4	-2	-6	i	-8	-13
c1csc(CNc2ncnc3sccc23)c1	7	-15	-18	·	·	i	80*	-1
Clc1cccc(Cl)c1C1=NOC(c2nnc(-c3ccccc3)o2)C1 (centres undefined)	4	3	-13	-7	2	i	1	-8
Cc1ccc(NC(=O)CN(C)S(=O)(=O)c2cccc3cccnc23)cc1F	-1	-2	4	5	6	i	10	2
O=S(=O)(/C(=C/c1ccc(C(F)(F)F)cc1)c1nc2ccccc2[nH]1)c1ccccc1	-24	-31	·	-9	-12	i	-127	101*
Cn1c(COc2ccc([N+](=O)[O-])cc2)nnc1SCC(=O)NCC1CCCO1 (centres undefined)	1	2	-14	1	-3	i	-3	·
O=C(O)CC/C(=N/Nc1ncc(C(F)(F)F)cc1Cl)C(=O)O	-2	2	·	3	10	i	2	3
CN1c2ccccc2Sc2cc(N)ccc21	2	-3	-8	-4	4	i	-29	53
O=C(Nc1cccc(F)c1)N1CCC(c2ccccc2)CC1	3	1	-13	-7	-2	i	-10	35
O=C(O)c1cc([N+](=O)[O-])ccc1NCCCc1ccccc1	4	2	-5	·	·	i	i	4
Cc1ccc(C)c2nc(SCC(=O)Nc3ccc4c(c3)OCO4)c(C#N)cc12	-2	0	-13	2	7	i	-16	-5
CC(C)COP(=O)(c1ccc(N(C)C)cc1)C(O)c1ccccn1 (centres undefined)	3	0	-13	1	6	i	-169	-11
O=C(COC(=O)c1cc(-c2cccs2)nn1-c1ccccc1)Nc1ccc(Cl)c([N+](=O)[O-])c1	3	5	8	-9	7	i	4	-13
Cc1ccc(OC(C)C(=O)Nc2ccc(C)c(S(=O)(=O)Nc3ccc(C)cc3C)c2)cc1 (centres undefined)	-14	-14	·	-2	-15	i	13	25
N/C(=N\OC(=O)CCCCCN1C(=O)c2ccccc2C1=O)c1ccccn1	1	5	·	-1	?	i	10	2
Cc1ccc(/C=N/NC(=O)Cn2nccc2C)o1	-1	4	-15	6	-6	i	-12	-1
CCCOc1ccc(/C=C/C(=O)NCc2ccccc2)cc1	4	2	·	-7	-8	i	1	24
CC/C(Cc1ccccc1)=N\NC(=O)c1cc(C)oc1C	5	6	-4	-4	-13	i	-5	-6
COc1ccc(NC(=O)NC(C)C2CC3CCC2C3)cc1 (centres undefined)	3	2	·	8	-12	i	9	5
CN(C)CCN1C(=O)C(=O)/C(=C(/O)c2ccc(F)cc2)C1c1ccccc1 (centres undefined)	5	3	-7	-17	-2	i	·	-6
COc1ccc(C(=O)OCC(=O)c2ccc3c(c2)NC(=O)CO3)cc1[N+](=O)[O-]	1	-3	-10	·	·	·	-7	-13
COc1cc([C@@H]2CC=C(C(=O)O)CN2S(=O)(=O)c2ccc(C)cc2)cc(OC)c1OC	1	2	3	·	·	·	3	-3

4 compounds picked at random from the list so far:
SMILES	MT1-MMP act inh	MT1-MMP act inh RFP	Yeast UUG start	eIF4H inh	PABP FP inh	Rce1 inhib	Env fusion inh	CSC inhib	others
CN1c2ccccc2Sc2cc(N)ccc21	2	-3	-8	-4	4	i	-29	53
COCCCN=Cc1c(C)[nH]n(-c2ccc(Br)cc2Br)c1=O	2	3	·	-4	-2	i	-10	-2
Cc1ccc(C)c2nc(SCC(=O)Nc3ccc4c(c3)OCO4)c(C#N)cc12	-2	0	-13	2	7	i	-16	-5
Cc1cccc(NS(=O)(=O)c2ccc(C)c(C(=O)OCC(=O)Nc3cc(C)on3)c2)c1	5	-3	7	-8	-9	+	?	10
